# ClpP mod – qHTS Assay for Activators of ClpP. purified B. subtilis ClpP, FRET peptide cleavage, 20 min. Potency, µM (top dose mostly 57.5 µM), inactives show top-dose activity change, negative = active. actives 1.9% (n = 340,000). ATP-dependent Clp protease proteolytic subunit (Bacillus subtilis (strain 168)), P80244; active = well fitted falling curve with a large enough effect; inconclusive = small, poorly fitted or top-dose-only effect; inactive = no such curve, though single readings can be large or run the other way; note: potency is the fitted concentration of half-maximal effect; the source files actives as falling curves though it sought activators and does not explain the sign; nearly all actives have a fitted effect of over 65% in size; many hits overshoot -100%
# Target sequence (P80244 whole entry, looked up): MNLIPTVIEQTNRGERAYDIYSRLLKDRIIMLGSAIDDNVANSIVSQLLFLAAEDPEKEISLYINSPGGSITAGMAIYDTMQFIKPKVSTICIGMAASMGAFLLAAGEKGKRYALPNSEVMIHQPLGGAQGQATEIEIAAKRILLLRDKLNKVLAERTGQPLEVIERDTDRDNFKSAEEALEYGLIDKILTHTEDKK
#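 FRET quenching reversal measured ClpP activation: 10 microg/mL B. subtilis ClpP at pH 8 with the FRET-FV decapeptide, read at 430 nm after 320 nm excitation. The 20-min minus 0-min signal was scaled between DMSO/no-enzyme wells and ADEP (5.8 microM final).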
# TRPV1 potentiator – HTS Assay for Compounds that Act as Potentiators of the Vanilloid Receptor 1 | Transient receptor potential cation channel subfamily V member 1 (Homo sapiens), Q8NER1 | TRPV1-expressing cells, Fluo-8 calcium influx, capsaicin EC20 potentiation; host cell line not named in the record; control for the full effect not named in the record | potentiation, % at 8.33 µM | actives 0.02% (n = 320,000) | AID 540277, 2011; active means potentiation above 80%; inconclusive means 30% to 80%; inactive means below 30%; note: 0% is about no effect
# Target sequence (Q8NER1 whole entry, looked up): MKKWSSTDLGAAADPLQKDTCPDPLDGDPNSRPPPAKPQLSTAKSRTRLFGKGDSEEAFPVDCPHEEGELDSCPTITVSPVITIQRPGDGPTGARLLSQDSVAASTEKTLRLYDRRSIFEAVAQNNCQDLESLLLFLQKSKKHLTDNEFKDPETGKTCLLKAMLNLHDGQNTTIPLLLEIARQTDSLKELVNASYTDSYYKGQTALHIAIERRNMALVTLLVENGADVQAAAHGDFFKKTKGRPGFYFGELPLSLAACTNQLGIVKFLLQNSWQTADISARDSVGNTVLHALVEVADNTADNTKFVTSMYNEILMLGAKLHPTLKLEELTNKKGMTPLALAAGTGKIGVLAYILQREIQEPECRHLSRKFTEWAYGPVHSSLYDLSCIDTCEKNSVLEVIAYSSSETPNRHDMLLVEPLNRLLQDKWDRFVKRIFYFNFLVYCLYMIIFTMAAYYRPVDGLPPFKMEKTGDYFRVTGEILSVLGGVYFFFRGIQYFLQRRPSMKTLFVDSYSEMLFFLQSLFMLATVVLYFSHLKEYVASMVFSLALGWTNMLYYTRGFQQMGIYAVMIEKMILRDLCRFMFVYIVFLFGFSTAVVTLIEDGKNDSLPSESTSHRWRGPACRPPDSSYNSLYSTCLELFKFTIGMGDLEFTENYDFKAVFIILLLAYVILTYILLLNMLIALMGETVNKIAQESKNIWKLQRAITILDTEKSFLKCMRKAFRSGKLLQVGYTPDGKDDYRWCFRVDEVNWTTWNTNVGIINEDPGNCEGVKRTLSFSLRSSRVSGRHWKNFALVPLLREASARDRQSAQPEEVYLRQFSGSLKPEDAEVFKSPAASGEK
#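 Fluo-8 calcium influx in TRPV1-expressing cells, kinetic read (ex 480/em 520 nm). Compound added and read 3 min for agonist activity, followed by capsaicin at EC20 final and 2 min further read for enhancement.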
# Menin-MLL FL inh – qHTS Assay for Inhibitors Targeting the Menin-MLL Interaction in MLL Related Leukemias: Competition With Fluorescein Labeled MLL-derived Peptide; Fluorescence polarization, fluorescein-MLL peptide displacement from menin; FP activity change, % at 61.4 µM; 290,000 tested, under 10 active; inconclusive = falling polarisation curve, or a change in total fluorescence; inactive = total fluorescence flat and polarisation flat or rising; no compound was filed as active; the % refers to the polarisation; negative = inhibition;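 note: % of control where 0% means no effect; inhibitors lower the polarisation; unlabelled MLL peptide was the positive control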
# gsp agonist – qHTS for Agonist of gsp, the Etiologic Mutation Responsible for Fibrous Dysplasia/McCune-Albright Syndrome: qHTS; actives 0.13% (n = 340,000); Potency, µM (top dose mostly 76.9 µM), for inactives: at the highest dose activation (cAMP increase), usual class: activators; gsp mutant cells, cAMP HTRF, 30 min; control for the full effect not named in the record; active = well fitted activation curve with a large enough effect; inconclusive = small, poorly fitted or top-dose-only effect, or another doubt; inactive = no such curve, though single readings can be large or run the other way; cell line not stated here;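 note: phosphodiesterase inhibitor Ro 20-1724 added with compounds to block cAMP breakdown; potency is the fitted concentration of half-maximal effect; nearly all actives have a fitted effect of over 60% in size; about a fifth of the inactives were tested at one dose only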
#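 Cells stably selected in G418 were plated at 2000/well, grown 16-24 hr, then given compounds in DMSO with the PDE inhibitor […] (300 uM solution added) for 30 min at 37C; cAMP was read by HTRF.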
# Sfp inh – qHTS Assay for Inhibitors of Bacillus subtilis Sfp phosphopantetheinyl transferase (PPTase) | actives 3.5% (n = 310,000) | Biochemical Sfp PPTase activity, qHTS | Potency, µM, without a hit: max response, negative = inhibition, most hits filed as inhibitors | 4'-phosphopantetheinyl transferase ffp (Bacillus subtilis), Q9F4F7; active = well fitted inhibition curve with a large enough effect; inconclusive = small, poorly fitted or top-dose-only effect, or another doubt; inactive = no such curve, though single readings can be large or run the other way;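 note: the enzyme is Sfp with the accession as filed and its product quenches rhodamine fluorescence; potency is the fitted concentration of half-maximal effect; 0% = enzyme reaction without inhibitor and -100% = no enzyme wells; top concentration of the series not given in the record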
#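 With Hepes-Na pH 7.6 buffer containing 10 mM MgCl2, Sfp (15 nM) modified BHQ-2-YbbR (12.5 uM) using rhodamine-CoA (5 uM). Two reads 30 minutes apart at 525/598 nm yielded each well's rate.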
# CtBP-E1A inh – qHTS Assay for Inhibitors of the CtBP/E1A Interaction | AlphaScreen GST-E1A/His-CtBP binding, 1536-well; active compounds read low; control for the full effect not named in the record | activity change, % (test concentration not listed) | actives 0.49% (n = 340,000) | AID 651724, 2012; in the data active means activity change below about -65%; inconclusive means about -30% to -65%; inactive means above about -30%; note: % is set by controls: 0 for no effect and ±100 for the full control effect
#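 AlphaScreen with 125 nM GST-E1A and 125 nM His-CtBP (5X stocks) in Tris pH 8.0, 300 mM NaCl, BSA, Tween 20, TCEP. Compounds preincubated 2 h at 37 deg C, then glutathione donor/nickel acceptor beads added for 1 h at 37 deg C in dark.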
# gsp antag – qHTS for Antagonists of gsp, the Etiologic Mutation Responsible for Fibrous Dysplasia/McCune-Albright Syndrome: qHTS. gsp-mutant cells, cAMP HTRF, 30 min; control for the full effect not named in the record. Potency, µM (series often up to 76.9 µM), for inactives: at the top dose activity change, negative = inhibition, usual class: inhibitors. actives 0.4% (n = 340,000). AID 624288, 2012; active = falling curve of any shape with a large fitted effect; inconclusive = falling curve, mostly with a smaller effect; inactive = flat or rising curve; cell line not stated here;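 note: intracellular cAMP measured with PDE inhibitor Ro 20-1724 present during compound exposure; potency is the fitted concentration of half-maximal effect; % is set by controls: 0 for no effect and ±100 for the full control effect; nearly all actives have a fitted effect of over 65% in size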
#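 HTRF cAMP measurement after 30 min RT detection following 30 min, 37C compound treatment alongside […] (added as 300 uM solution) in G418-selected cells seeded at 2000/well and grown 16–24 h.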
# An asterisk follows results filed as active; ? = inconclusive; . = no result given; [ ] = remark or other dose.
# Order of values: CtBP-E1A inh	Menin-MLL FL inh	gsp agonist	gsp antag	Sfp inh	TRPV1 potentiator	ClpP mod
> c1ccc(Cc2ccc(OCCn3cncn3)cc2)cc1
→ 5	1.5	-21%	-5%	18%	16	0.8%
> Nc1nnnn1/N=C/c1cc([N+](=O)[O-])ccc1O
→ -14	3.2	-2%	-13%	15%	19	1.4%
> CC(=O)Nc1ccc2cc3ccc(NC(C)=O)cc3nc2c1
→ -10	?	45%	?	-3%	-10	4.2%
> COc1cccc(-n2c(Cc3cc(=O)[nH]c(=O)[nH]3)nnc2SCC(=O)N2CCCCCC2)c1
→ 0	-5.5	?	10%	14%	.	1.6%
> CCC(=O)N1CCN(c2ccccc2NC(=O)c2ccc(OC)c(Cl)c2)CC1
→ -1	1.9	-31%[inhibitor]	1%	-17%	-17	3.3%
> CCOc1ccccc1NC(=O)Nc1ccncc1
→ 8	-3.7	?	7%	-6%	-14	0.1%
> O=C(NCc1ccccc1)/C(=C/c1ccccc1)NC(=O)c1ccco1
→ 0	-5.6	-5%[15.4 µM]	-1%	19%	3	.
> COc1ccc(N(C)C(=O)Cn2c(=O)oc3ccccc32)c(OC)c1
→ 1	0.0	24%[15.4 µM]	6%	5%	-17	.
> COc1ccc(-c2cc(C)no2)cc1S(=O)(=O)N(C)c1ccc(C)cc1
→ .	-1.3	-29%	4%	6%	-10	0.0%
> CC1CCN(C(=O)c2[nH]cnc2C(=O)NCCCCCNC(=O)OC(C)(C)C)CC1
→ 5	.	.	5%	.	-12	-0.9%
> CCc1cccc2c(=O)c(C(=O)NCCN3CCOCC3)c[nH]c12
→ -7	2.2	?	6%	14%	-3	-9.4%
> CCOc1ccccc1C(=O)NC(C(=O)Nc1cccc(S(N)(=O)=O)c1)C(C)C (configuration not stated)
→ -4	2.4	5%[15.4 µM]	-5%	8%	?	0.0%
> Cc1ccc(OC(=O)N(C)C[C@H]2OCc3cn(nn3)CCCC(=O)N([C@H](C)CO)C[C@@H]2C)cc1
→ 7	.	0%	.	.	.	1.3%
> CCc1ccc(NC(=O)c2ccc(C3SCC(=O)N3CCc3ccccc3)cc2)cc1 (configuration not stated)
→ 1	-0.8	-25%	-6%	23%	1	-1.6%
> COc1ccccc1CCNC(=O)c1cnccn1
→ -2	1.8	8%	1%	-29%	2	-2.9%
> CC(=O)Nc1ccc([N+](=O)[O-])c(CS(=O)(=O)c2ccc(C)cc2)c1[N+](=O)[O-]
→ -1	-0.7	-28%[15.4 µM]	-4%	-13%	-1	.
> O=C(Cn1cc([N+](=O)[O-])cn1)Nc1ccccn1
→ -8	-0.2	?	3%	4%	1	0.6%
> O=C(CCCn1c(=O)oc2ccccc21)N1CCN(c2ccccn2)CC1
→ -7	7.9	3%[15.4 µM]	4%	8%	7	.
> CCOC(=O)c1c(C)noc1-c1ccco1
→ 10	1.8	3%[15.4 µM]	1%	24%	1	-3.3%
> CCCN(CCC)S(=O)(=O)c1ccc(C(=O)N2CCC(=O)c3ccccc32)cc1
→ -2	1.6	8%	-4%	3%	18	-2.2%
> COc1cccc(-c2cc3nc(-c4ccccc4)cc(=O)n3[nH]2)c1
→ -9	-4.0	12%	22%	20%	18	3.3%
> CC(=O)c1cccc(NC(=O)CCCCCn2nnc3ccccc3c2=O)c1
→ -1	0.1	13%[15.4 µM]	-23%	7%	-4	-1.0%
> CCN(CC)C(=O)Cn1cc(/C=C(\C#N)C(=O)NC2CC2)c2ccccc21
→ .	-6.3	-24%	-4%	11%	?	-2.8%
> CN(CC(=O)Nc1ccc(N2CCOCC2)cc1)C(=O)c1cn(-c2ccccc2)nc1-c1ccccc1
→ -17	.	-24%	-1%	.	20	-5.1%
> O=[N+]([O-])c1ccc(Cl)c(CN2CCSCC2)c1
→ -14	0.2	-28%	-10%	-3%	-2	-4.0%
> Cc1onc(-c2ccccc2)c1C(=O)NCC(=O)Nc1cc(Cl)ccc1Cl
→ -2	.	1%[15.4 µM]	-17%	.	.	?
> COc1ccc(NC(=O)N2CCC(c3nc(-c4cccs4)no3)CC2)cc1
→ 0	-0.3	?	-3%	0%	-25	-2.9%
> O=C(NCc1ccccc1)C(=O)NCC(c1ccco1)N1CCN(c2ccccc2F)CC1 (configuration not stated)
→ 4	7.3	8%	14%	18%	9	1.9%
> COc1ccc([C@H]2CC(=O)C=C(c3ccc(OC)c(F)c3)C2)cc1
→ -13	.	10%	-21%	.	2	-5.7%
> CCOC(=O)c1c(NC(=O)c2cc(-c3ccc(Cl)s3)nc3ccccc23)sc(C(N)=O)c1C
→ 8	3.3	11%	4%	4%	3	-5.0%
> COc1ccc(/C=N/NC(=O)c2ccn[nH]2)cc1Cn1nc(C)c([N+](=O)[O-])c1C
→ .	-0.4	-36%[inhibitor]	7%	5%	?	-2.7%
> CCCC(=O)N(Cc1cc2cc(C)ccc2[nH]c1=O)c1ccccc1OC
→ -9	-1.4	22%	-8%	-2%	-14	?
> CC(C)SCC(=O)Nc1ncc2c(n1)-c1ccccc1CC2
→ 0	?	-3%[15.4 µM]	-8%	-2%	17	.
> Cc1ccc(OCCN(C)C(=O)C2CCC(=O)N(CC3CCCCC3)C2)cc1 (configuration not stated)
→ .	-0.9	-31%[inhibitor]	-10%	1%	2	4.1%
> CCOc1ccc(-n2c(C)cc(/C=N\NC(=O)CC(=O)NC3CCCCC3)c2C)cc1
→ -9	3.9	19%	1%	-2%	-18	0.6%
> COc1ccc(NC(=O)c2ccc3c(=O)n(Cc4ccco4)c(=S)[nH]c3c2)c(OC)c1
→ 2	-0.3	12%	-1%	4%	-13	0.4%
> Cc1cccc(C)c1NC(=O)CN1CCN(CC(=O)c2cc(C)n(C3CC3)c2C)CC1
→ .	.	-8%	2%	.	0	0.7%
> CC(=O)Nc1ccc(S(=O)(=O)N2CCN(S(=O)(=O)N3CCCCCC3)CC2)cc1
→ 0	3.9	3%	2%	12%	-5	0.7%
> COC(=O)C(CCCCNC(=O)OCc1ccccc1)NC(=O)CN (configuration not stated)
→ -1	3.4	-74%[inhibitor]	4%	11%	4	-1.2%
> COc1ccc(C(=O)COC(=O)CCN=C2NS(=O)(=O)c3ccccc32)cc1OC
→ -7	8.6	15%	6%	3%	-6	-3.5%
> O=C(c1ccco1)N1CCN(C(=O)C2CCCN(S(=O)(=O)Cc3ccccc3)C2)CC1 (configuration not stated)
→ 5	-1.5	0%	13%	-2%	1	1.2%
> Cc1cc(/C=C2\NC(=S)NC2=O)c(C)n1-c1cccnc1
→ 2	14	0%[15.4 µM]	-2%	14%	.	.
> CC1CCCN(c2nc3c(c(=O)n(C)c(=O)n3C)n2CCSc2nc3ccccc3o2)C1 (configuration not stated)
→ 2	3.5	-2%	-4%	12%	14	0.3%
> CN(C(=O)C1CC1)C1CCS(=O)(=O)C1 (configuration not stated)
→ 0	.	-35%[15.4 µM]	13%	.	3	.
> COc1ccc(C(=O)n2nc(-c3ccco3)nc2N)cc1OC
→ 15	3.0	15%[15.4 µM]	-17%	-2%	?	.
> Cc1nc2cc(NC(=O)C3COc4ccccc4O3)ccc2s1 (configuration not stated)
→ -3	-0.3	1%	-1%	-2%	3	.
> CSc1ccccc1NC(=O)CN1CCCCC1C (configuration not stated)
→ .	0.2	-4%[15.4 µM]	2%	0%	-16	.
> CC1(C)OC(=O)C(=CSc2ccc(C(C)(C)C)cc2)C(=O)O1
→ -2	7.8	-11%	4%	3%	1	.
> COc1ccc(C2=NOC(Cn3nc(C(=O)NCc4ccco4)cc3-c3ccccc3)C2)cc1 (configuration not stated)
→ .	.	-27%	32µM*	.	?	-2.8%
> NC1=NC[C@@H](Cc2ccc(O)cc2)N1CC1CCCCC1
→ -7	1.3	.	10%	8%	10	-1.0%
> CCOc1ccc(NC(=S)N2C3CCCC2CC(NC(=O)C2CC2)C3)cc1 (configuration not stated)
→ 5	-6.5	-23%	2%	6%	10	.
> O=C(NC1CCCCC1)OCCN1CCN(Cc2ccccc2)CCC1=O
→ .	1.0	.	.	0%	3	.
> Cc1[nH][nH]c(=O)c1C(c1c(C)[nH][nH]c1=O)c1cn(C)c2ccccc12
→ 9	4.3	-3%[15.4 µM]	-32%	45µM*	8	.
> CSc1ncc(C(=O)Nc2ccccc2C)c(C)n1
→ 6	-0.7	-26%[15.4 µM]	13%	12%	6	.
> CCOC(=O)c1cnc(Nc2nc3ccccc3o2)nc1CSC(=S)N(CC)CC
→ -22	7.1	-19%	5%	14%	-4	0.7%
> CNC(=O)COC(=O)C1CCN(S(=O)(=O)c2ccc3c(c2)OCCO3)CC1
→ .	.	7%	2%	.	9	-3.4%
> Cc1ccc(NC(=O)CSCc2cc(=O)n3cc(C)sc3n2)c(C)c1
→ .	.	-2%	-4%	-1%	-15	-2.2%
> COc1ccc(S(=O)(=O)N2CCCCC2)cc1NC(=O)COC(=O)c1ccco1
→ -6	.	8%	6%	.	.	4.9%
> COc1ccc(/C(O)=C2/C(=O)C(=O)N(c3ncccn3)C2c2ccc(F)cc2)cc1 (configuration not stated)
→ 6	5.2	?	-9%	13%	7	.
> CCOc1ccc(/C=N/Nc2cc(C)nc(N3CCOCC3)n2)cc1
→ 5	-1.8	1%	-11%	22%	-28	.
> C(=N\Nc1nn[nH]n1)/c1ccccc1
→ 3	1.1	-5%	0%	45µM*	4	-0.4%
> COC(=O)c1nnn(CC(=O)Nc2cccc(Cl)c2)c1C(=O)OC
→ -1	2.6	1%	10%	22%	6	-2.9%
> CCOC(=O)N1CCC(n2c(=S)[nH]c3ccccc3c2=O)CC1
→ 2	3.3	0%	1%	23%	-28	-1.9%

# Assay outcomes (PubChem BioAssay)
